Screens deposited in PubChem by ICCB-Longwood Screening Facility, Harvard Medical School.
AID504770 – growth inhibition of E. coli YBA685, primary screen, V. cholerae RctB inhibitors; E. coli YBA685 rctB-dependent plasmid, OD600 growth, 3 h; active compounds read low; z-score (concentration not given with the values); AID 504770, 2011; hit rate 0.27% among 130,000;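 active = z-score under -2 on both plates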;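 also: wells of about 30 µL received 100 nL stock; score is relative to mean and SD of the test wells; the first replicate is given; strong numbers were not always called active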
CapD inh – Bacillus anthracis CapD inhibitors, primary screen, biochemical, fluorescence intensity; CapD gamma-glutamyltranspeptidase (Bacillus anthracis Ames Ancestor); purified CapD enzyme, fluorescence intensity read-out; active compounds read low; some hits fall short of the stated cut; z-score (concentration not given with the values); hit rate 0.23% among 140,000; AID 492967, 2010;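 active = z-score under -4 in either of two replicates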;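 also: stock transfer was 100 nL into about 40 µL; score is relative to mean and spread of the plate; one replicate is shown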
Numbers without * were called inactive; i = inactive; . = no result given.

SMILES	AID504770	CapD inh
COC(=O)CNC(=O)C1CC1	-3.5	.
Cc1ccc(S(=O)(=O)NCCN2CCN(S(=O)(=O)c3ccc(C)c(C)c3C)CC2)c(C)c1C	0.2	6.1
S=C(Nc1ccccn1)c1ccccc1	-0.9	.
COc1cnc(-c2ccccc2)nc1Sc1ccccc1	-0.35	-0.4
CN(CCCC12CCC(c3ccccc31)c1ccccc12)S(=O)(=O)c1cc(C(F)(F)F)cc(C(F)(F)F)c1	.	0.36
COC(=O)c1ccc2ccn(CC(N)=O)c2c1	0.9	105
NNC(=O)Nc1ccccc1	0.85	.
Cc1cc(=O)oc2c1ccc1occ(Nc3cccc([N+](=O)[O-])c3)c12	.	-0.17
Cc1c(C(=O)Nc2ccccc2Br)oc2ccccc12	0.1	.
CCCn1c(=O)c(C(=O)Nc2nccs2)c(O)c2ccccc21	-0.8	.
CC(C(=O)Nc1ccc(Cl)cc1)N(C)Cc1cccs1 (stereo not drawn)	-0.2	.
c1ccc(N=C2CCCC2)nc1	-1.3	20
O=C(c1cnn(-c2ccccc2)c1-n1cccc1)N1CCC(C(=O)N2CCc3ccccc32)CC1	-0.1	0.085
CC(=O)c1c(-c2ccccc2)c2cc(Cl)ccc2[nH]c1=O	.	0.73
CC(C)c1ccc(C2/C(=C(\O)c3ccccc3)C(=O)C(=O)N2CCCN2CCOCC2)cc1 (stereo not drawn)	.	-0.27
CCCC(O)(CCC)C(=O)NN1CCCCC1	-0.6	0.21
Cc1nc(N2CCN(c3ccccn3)CC2)c2c(C)c(C(=O)N3CCC(C(N)=O)(N4CCCCC4)CC3)sc2n1	.	-0.35
CC(C)C(C)(C#N)NC(=O)CSc1nnc(-c2cccs2)n1N (stereo not drawn)	0.7	.
N#CC(C#N)=Cc1ccc(F)cc1F	0.7	0.085
CCOC(=O)C1=C(CNc2ccc(C)cc2)NC(=O)NC1c1ccccc1 (stereo not drawn)	-0.7	0.06
Cc1cc(C)n(-c2nncn2N)n1	0.15	.
CCOc1ccccc1Nc1nnc(SCCC#N)s1	0.1	.
CC(=O)N=Nc1c(O)[nH]c2ccc(F)cc12	-0.7	-1.4
O=C1NC(=S)N/C1=C/c1ccc(-c2ccc([N+](=O)[O-])cc2Br)o1	.	-0.13
OCCNc1ccc(C(F)(F)F)cn1	-1.2	2.6
N#Cc1nccnc1N1CCN(S(=O)(=O)c2ccc(Br)cc2)CC1	.	2.8
NC(=O)c1c(NC(=O)CN(C(=O)c2cccs2)C2CCCC2)sc2c1CCCC2	-0.05	.
CCOc1ccccc1NC(=O)Cn1c(CC)nc2ccccc21	-0.45	-0.3
CCOC(=O)c1c(N)sc(C(=O)NC)c1COC(=O)/C=C/c1cccs1	0.55	.
O=C(O)c1cc(=O)c2cccc(O)c2[nH]1	-0.05	-0.15

The last three entries of the section before come first, to join the parts:
SMILES	AID504770	CapD inh
CCOc1ccccc1NC(=O)Cn1c(CC)nc2ccccc21	-0.45	-0.3
CCOC(=O)c1c(N)sc(C(=O)NC)c1COC(=O)/C=C/c1cccs1	0.55	.
O=C(O)c1cc(=O)c2cccc(O)c2[nH]1	-0.05	-0.15
Cc1cc2cc(CNC(=O)c3cc4ccccc4o3)ccc2[nH]1	-1.1	.
COC(=O)c1cc(OC(=O)C23CC4CC(CC(C4)C2)C3)n(C)n1	-0.2	.
N#CCN1CCn2c3c(c4cc(C5CCCCC5)ccc42)CCCC31 (stereo not drawn)	0.85	-0.25
CC(=O)Oc1ccc(-n2c(C)cc(C=C3C(=O)N(C)C(=O)N(C)C3=O)c2C)cc1	.	-0.6
CCOc1cc(C)ccc1OCC(=O)O	-0.05	.
Cc1cc(OC(=O)c2cccs2)n(Cc2ccc(Cl)cc2Cl)n1	-0.25	.
CSc1cccc(NS(=O)(=O)c2cc3[nH]c(=O)c(=O)[nH]c3cc2C)c1	-0.85	5.7
COCC(=O)NCc1nn(-c2ccccc2)nc1C	-0.75	0.32
O=c1c2ccccc2c(/C=N/c2ncn[nH]2)c(O)n1Cc1ccccc1	-0.15	.
COc1ccc(-c2noc(N3CCCC(C(=O)N(C)c4cccc(C(F)(F)F)c4)C3)n2)cc1 (stereo not drawn)	1	-0.3
O=C(c1cc(Nc2ccccc2)n[nH]1)N1CCCCC1	-0.1	-0.25
O=C1O/C(=C/C(=O)N2CCOCC2)c2ccccc21	-1	.
O=C(O)CC1SC(c2ccc(Oc3ccc(C(F)(F)F)cn3)cc2)=NC1=O (stereo not drawn)	0.4	1.4
CCOc1ccc(-c2cc3cc(OC)c(OC)cc3c(CC)n2)cc1	.	10
CN1C(=O)/C(=C\c2ccc3c(c2)OCO3)SC1=S	0.8	0.86
Cc1ccc2occ(/C=N/O)c(=O)c2c1	-0.7	-0.29
COC(=O)c1ccc(-n2c(C)cc(-c3csc(N)n3)c2C)cc1	0.9	.
CSC1=NCCN1S(=O)(=O)c1ccc2ccccc2c1	0.55	-0.27
O=C(Nc1ccccc1)C1(S(=O)(=O)c2ccccc2)CC1	1.6	.
O=C(O)c1ccc(-c2nnco2)cc1	0	.

Three compounds picked at random from those above, as already listed:
SMILES	AID504770	CapD inh
CCOc1ccc(-c2cc3cc(OC)c(OC)cc3c(CC)n2)cc1	.	10
O=C(O)CC1SC(c2ccc(Oc3ccc(C(F)(F)F)cn3)cc2)=NC1=O (stereo not drawn)	0.4	1.4
Cc1ccc2occ(/C=N/O)c(=O)c2c1	-0.7	-0.29

(next part)
SMILES	AID504770	CapD inh
Nc1ccc(N2S(=O)(=O)c3ccccc3S2(=O)=O)cc1	.	-0.075
O=C(Nc1cc(C(F)(F)F)cc(C(F)(F)F)c1)c1c(F)cccc1F	.	-1
COc1ccc(-n2nc(C(=O)NCc3ccc(C)cc3)c3c4ccccc4n(C)c3c2=O)cc1Cl	-0.55	0.35
O=C(Nc1nccs1)C(F)(F)F	2	.
CC(C)(C)N(Cc1ccccc1)C(=O)CSc1nc(N)cc(=O)[nH]1	-0.1	.
O=C1NCC(COc2cccc3ccccc23)O1 (stereo not drawn)	-0.65	-0.005
CC(=O)NC(O)C(=O)c1cccs1 (stereo not drawn)	0.95	0.12
CCOc1nc2cccnc2n(C(C)C(=O)N(CC)c2cccc(C)c2)c1=O (stereo not drawn)	-0.5	38
COC(=O)Cc1cc(=O)[nH]c(=S)[nH]1	-0.2	.
CCCc1cc(=O)[nH]c(SCC(=O)N(C)Cc2ccccc2)n1	0.65	.
O=C1c2cccc([N+](=O)[O-])c2C(=O)N1C1C(=O)N(c2cccc(C(F)(F)F)c2)C1c1cccs1 (stereo not drawn)	.	-0.38
Nc1nc2cc3c(cc2s1)OCO3	-0.55	.
O=S(=O)(c1ccc(N2CCOCC2)nc1)N1CCOCC1	0	.
Cn1cnnc1SCC(=O)NC(=O)c1ccc(C(C)(C)C)cc1	2	.
CS(=O)(=O)c1[nH]nc(-c2ccccc2)c1C#N	-0.65	-0.11
COc1ccc(N=Cc2ccc(-c3ccc(OC)cc3)o2)cc1	0	i
CCCNCC(=O)Nc1ccccc1C	1.3	.
COc1ccc(Cc2nnc(NC(=O)c3cccs3)s2)cc1OC	2.2	.
O=C(CCCn1sc2ccccc2c1=O)NCc1cccnc1	-1.8	0.4
O=C(OCc1cc(=O)oc2cc(O)ccc12)C1CC2CCCC(C1)C2=O (stereo not drawn)	-0.2	.
COc1ccc(-c2noc(Nc3cc(OC)ccc3OC)n2)cc1	0.2	0.79
Nc1ncc(-c2ccncn2)c(-c2ccc(C(F)(F)F)nc2)n1	.	-0.42
CCOC(=O)C1=C(N)OC2=C(C(=O)CC(C)(C)C2)C1c1cccc(Cl)c1 (stereo not drawn)	.	-0.005
O=C(Nc1ccccc1Cl)c1c(NC(=O)C(F)(F)F)sc2c1CCC2	.	-0.61
Cc1ccc(NC(=O)c2sc3nc4c(cc3c2N)C(=O)CC(C)(C)C4)cc1	.	-0.27
Cc1csc(NC(=O)c2sc3cc(F)ccc3c2Cl)n1	1.2	-1.1
Cc1ccc(S(=O)(=O)NCCO)cc1-c1nnc2c3ccccc3c(C)nn12	-1	.
CC(C)=CC1C(C(=O)NN)C1(C)C (stereo not drawn)	0.85	.
CCn1c(-n2nc(C)cc2NC(=O)c2ccccc2)nc2ccccc21	0.2	0.62
CC1CN(C(=O)COC(=O)c2ccc(S(=O)(=O)N3CCCC3)cc2)CC(C)O1 (stereo not drawn)	0.1	.
O=C(O)C1=C(C(=O)NCc2ccc3c(c2)OCO3)CCCC1	-0.65	0.4
CC(=O)Oc1ccc(C(=O)Nc2ccc3nc(-c4ccc(Br)cc4)oc3c2)cc1	.	3.7
COc1cc(N(C(=O)Cn2nnc3ccccc32)C(C(=O)NCC2CCCO2)c2ccc(F)cc2)ccc1-n1cnnn1 (stereo not drawn)	1	.
Cn1nc(C2CC2)cc1NC(=O)CC(CC(=O)O)c1ccccc1 (stereo not drawn)	0	0.8
CCOC(=O)CSc1ncnc2sc3c(c12)CCC3	0.3	.
Cc1onc(-c2ccccc2)c1CNC(=O)c1ccco1	-0.25	-0.095
CC(=O)NCCOc1nc(N2CCCCC2)nc(N2CCCCC2)n1	-0.55	0.24
Cc1c(CC(N)C(=O)O)sc2ccccc12 (stereo not drawn)	-0.4	1.9
COC(=O)C(Sc1nc(C)cc(C)c1C#N)c1ccccc1 (stereo not drawn)	-0.45	.
S=C(Nc1cccnc1)NC1CCCCCCC1	-0.3	0.29
C=CCN(c1ccccc1)S(=O)(=O)c1ccc2c(c1)OC(C)CN2C(C)=O (stereo not drawn)	-1	-0.6
Cc1cc(C)nc(NC(=S)Nc2ccccc2)n1	-0.8	.
CN(CCc1ccccn1)C(=O)OCCc1ccccc1F	.	-0.26
O=C1c2ccccc2-c2oc(=O)c3ccccc3c21	-0.4	0.56
CS(=O)(=O)CCC1NC(=O)NC1=O (stereo not drawn)	-0.85	.
Fc1cccc(-n2nnnc2-c2ccc(Cl)c(Cl)c2)c1	-0.35	-1
C[N+]1([O-])[C@@H]2CC[C@H]1CC(OC(=O)C(CO)c1ccccc1)C2 (stereo partly drawn)	.	0.16
CN(C(=O)C1CC1C(=O)O)C1CCN(Cc2c(Cl)cccc2Cl)C1 (stereo not drawn)	.	-0.29
COC(=O)c1ccc(COC(=O)c2cc3c(s2)CCCCC3)o1	0.1	.
COc1ccc(-c2nn(C)c3sc(C(=O)Nc4cccc(C#N)c4)cc23)cc1OC	-0.85	18
More results follow.
SMILES	AID504770	CapD inh
O=C(O)CC1(CC(=O)N2CCN(c3cccc(Cl)c3)CC2)CCCC1	.	0.63
Cc1c(Cl)cccc1NC(=S)Nc1cc2c(c([N+](=O)[O-])c1C)C(C)(C)CC2(C)C	.	-0.055
Cn1c(=O)c2cc(S(=O)(=O)NCCC(=O)NC3CCCC3)ccc2n(C)c1=O	-0.65	0.29
O=C(CCCC1=NS(=O)(=O)c2ccccc2N1)Nc1ccccc1	-1.1	0.93
COc1ccccc1CNC(=O)C(C)C	-0.8	-0.025
Cc1cccc(NC(=O)c2cccs2)c1C(=O)O	-0.45	-0.84
Cc1cc(C(=O)CSC(C)c2nc3ccccc3c(=O)[nH]2)c(C)n1C (stereo not drawn)	-0.6	.
O=C(Nc1ccc(OC(F)F)cc1)NC1CCN(C(=O)OCc2ccccc2)CC1	-0.5	-1.9
COc1ccc2c(c1)N(C)/C(=c1/s/c(=C3/C(=O)N(c4ccccc4)N=C3C)n(C)c1=O)S2	-1.7	.
COc1ccc(CNc2nc(N)n(-c3ccccc3)n2)cc1	0.85	-1.2

Compound profiles, from the list above:
O=C(CCCC1=NS(=O)(=O)c2ccccc2N1)Nc1ccccc1 is entered as AID504770: -1.1; CapD inh: 0.93
O=C(Nc1ccc(OC(F)F)cc1)NC1CCN(C(=O)OCc2ccccc2)CC1 is entered as AID504770: -0.5; CapD inh: -1.9
COc1ccc(CNc2nc(N)n(-c3ccccc3)n2)cc1 is entered as AID504770: 0.85; CapD inh: -1.2

Going on with the list:
SMILES	AID504770	CapD inh
O=C(Nc1ccc(C(F)(F)F)cc1)c1c(O)c2cccc3c2n(c1=O)CCC3	.	0.48
Nn1c(C(=O)N2CCCC2)nc2ccccc2c1=O	1.9	0.2
O=C1CC(NCC2CCCCC2)C(=O)N1c1ccccc1 (stereo not drawn)	-0.3	.
O=C(NCC1CCCO1)C1CCN(CC2CCCCC2)CC1 (stereo not drawn)	0.05	0.21
O=C(NCc1ccccc1)C1CCCN(S(=O)(=O)c2ccccc2)C1 (stereo not drawn)	-1.4	0.02
CC1C(=O)N2CCCc3cc(S(=O)(=O)N4CCCCC4)cc1c32 (stereo not drawn)	1	.
C#CCn1c(=NC(=O)CC)sc2ccccc21	1.1	.
O=C(N/N=C/c1cccc2c1OCCO2)c1ccc(CN2CCOCC2)cc1	-0.6	.
COCc1cc(=O)[nH]c(-c2ccc(Cl)cc2)n1	-0.1	0.51
O=C1CSC(=S)N1Nc1ccccc1	-4	.
CSc1nnc(CCNC(=O)C(c2ccccc2)C2CCCC2)n1C (stereo not drawn)	-1.3	.
Cc1cc2ncn(CCOc3ccccc3C)c2cc1C	-0.05	-0.89
COc1ccc(C(=O)NCC2COc3ccccc3O2)cc1 (stereo not drawn)	-1.1	.
O=C1/C(=C\c2ccc(F)cc2)N=C(c2ccccc2)N1Cc1ccc(F)cc1	-0.5	9.1
C#CCSC1=N/C(=C/N(C)C)C(=O)N1	-0.85	-3.1
CCc1nnc(NC(=O)c2noc3c2COc2ccc(C)cc2-3)s1	0.85	13
CC1=N/C(=C\C=C\c2ccccc2)C(=O)O1	-0.65	-0.87
Nc1ccnc2cc(C(F)(F)F)ccc12	-1	.
